Bioassay records from PubChem BioAssay.
CtBP-E1A inh – blocks the CtBP interaction with E1A. AlphaScreen GST-E1A/His-CtBP binding, 1536-well; stronger effect = lower value; control for the full effect not named in the record. activity change, % (concentration not given with the values). 340,000 tested, 0.49% active; in the data active means activity change below about -65%; inconclusive means about -30% to -65%; inactive means above about -30%; further: on the % scale 0 is the no-effect control and ±100 the full control effect
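Protein mix (5X: 125 nM each GST-E1A, His-CtBP) was incubated with pinned compound 2 h at 37 deg C in dark, in 50 mM Tris pH 8.0 buffer with 300 mM NaCl. Glutathione donor and nickel acceptor beads followed; AlphaScreen signal read after 1 h.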
D2 potentiator – positive allosteric modulators of human D2 dopamine receptor; P14416; DiscoveRx D2 beta-arrestin cells, luminescence, 90 min; 100% = 57 uM dopamine signal; potentiation, % (no concentration beside the values); 360,000 tested, 0.23% active; active = potentiation of 50% or more; inconclusive = 30% to 50%; inactive = 30% or less;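 further: compound concentration not given in the record; tested on top of an EC20 dose of dopamine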
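PathHunter D2 cells, attached overnight at 37 deg C, received compound in DMSO plus dopamine at EC20 (50 nM final) for 90 min at 37 deg C. Beta-arrestin recruitment was read as luminescence after 1 h with detection reagent at ambient temperature.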
TRPML1 blocker – human mucolipin-1 channel inhibition; Q9GZU1; TRPML1-inducible cells, Ca2+ dye fluorescence, FDSS; stronger effect = lower value; inhibition of EC80 agonist-evoked calcium signal; activity change, negative = inhibition, % (test concentration not listed); 390,000 tested, 0.02% active; in the data active means activity change below about -50%; inconclusive means about -30% to -50%; inactive means above about -30%;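 further: stimulus is agonist 54-4 at its EC80 concentration; on the % scale 0 is the no-effect control and ±100 the full control effect; compound concentration not given in the record; the text of the record puts the active cut at -80%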
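Tet-induced TRPML1-DL cells loaded with Ca8 no-wash calcium dye were read kinetically on FDSS. Compound addition was followed by EC80 agonist 54-4 (4 uM final); inhibition was read over 110 s.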
Six1-Eya2 blk – Six1/Eya2 interaction inhibition; activity change, % (test concentration not listed); Q15475+O00167; AlphaScreen GST-Six1/His-Eya2 binding, biochemical; stronger effect = lower value; control for the full effect not named in the record; 360,000 tested, 0.56% active; AID 651725; in the data active = activity change below about -65%; inconclusive = about -30% to -65%; inactive = above about -30%; further: on the % scale 0 is the no-effect control and ±100 the full control effect; compound concentration not given in the record
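AlphaScreen luminescence read after one hour at 37 °C in darkness. Pin-transferred compounds met GST-Six1 and His-Eya2 protein (5X stock 250 nM/500 nM) plus glutathione donor and Ni-chelate acceptor beads (5X, 50 ug/mL).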
TRPV1 potentiator – potentiators of human vanilloid receptor 1 (TRPV1); potentiation, % at 8.33 µM; AID 540277; 320,000 tested, 0.02% active; TRPV1-expressing cells, Fluo-8 calcium influx, capsaicin EC20 potentiation; host cell line not named in the record; control for the full effect not named in the record; active means potentiation above 80%; inconclusive means 30% to 80%; inactive means below 30%; further: 0% is about no effect
Target sequence (Q8NER1 whole entry, looked up): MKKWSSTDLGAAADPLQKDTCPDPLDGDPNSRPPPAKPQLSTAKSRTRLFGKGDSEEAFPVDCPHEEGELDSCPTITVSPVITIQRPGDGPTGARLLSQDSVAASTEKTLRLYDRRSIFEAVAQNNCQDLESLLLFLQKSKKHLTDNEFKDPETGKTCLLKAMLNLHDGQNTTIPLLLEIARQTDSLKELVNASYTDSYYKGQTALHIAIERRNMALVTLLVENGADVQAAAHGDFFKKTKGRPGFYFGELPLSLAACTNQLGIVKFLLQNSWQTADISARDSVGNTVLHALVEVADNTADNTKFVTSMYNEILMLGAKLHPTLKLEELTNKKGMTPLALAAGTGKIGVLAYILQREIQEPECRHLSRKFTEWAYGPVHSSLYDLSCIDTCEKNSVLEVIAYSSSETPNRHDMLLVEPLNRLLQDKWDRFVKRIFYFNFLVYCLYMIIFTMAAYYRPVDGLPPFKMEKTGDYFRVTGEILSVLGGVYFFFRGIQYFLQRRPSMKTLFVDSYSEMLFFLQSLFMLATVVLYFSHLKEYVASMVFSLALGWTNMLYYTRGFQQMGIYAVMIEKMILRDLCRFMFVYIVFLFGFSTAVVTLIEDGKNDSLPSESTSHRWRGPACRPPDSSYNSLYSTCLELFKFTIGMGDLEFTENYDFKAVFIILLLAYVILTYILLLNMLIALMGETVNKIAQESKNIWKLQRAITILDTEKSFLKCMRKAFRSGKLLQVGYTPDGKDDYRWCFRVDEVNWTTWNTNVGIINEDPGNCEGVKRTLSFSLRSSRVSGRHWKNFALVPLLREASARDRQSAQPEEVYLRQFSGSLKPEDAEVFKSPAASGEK
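TRPV1-expressing cells were cultured overnight at 35.5C and loaded with Fluo-8 calcium dye for 40 to 90 min at room temperature. After a 10 s baseline, compound was added and calcium influx was read kinetically for 3 min (ex 480/em 520 nm).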
TRPML1 agonist – activates the human TRPML1 channel; Q9GZU1; TRPML1-expressing cells, Ca2+ dye fluorescence, FDSS; host cell line not named in the record; reference of the full effect not given here; activation, % (concentration not given with the values); 410,000 tested, 0.12% active; AID 624414; in the data active = activation above about 50%; inconclusive = about 30% to 50%; inactive = below about 30%; further: 0% is about no effect; the text of the record puts the active cut at 80%
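Cells: TRPML1-DL, 1X Tet inducer, ~16 h at 37 degrees C/5% CO2. Dye: ABD Ca8 no-wash + quencher, 45-90 min RT. Read: 10 s baseline, compound add, 110 s agonist phase; 54-4 EC80 (4uM final), 110 s antagonist phase.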
Starred values were filed as active, the others as inactive; ? = inconclusive; · = not tested or not shown; & = joins results of further samples.

Molecule | CtBP-E1A inh | D2 potentiator | TRPML1 blocker | Six1-Eya2 blk | TRPV1 potentiator | TRPML1 agonist
CC1CC(O)C(C)CN1 (stereo not given) | -2 | -16 | -3 | -2 | 0 | 0.1
Cc1ccccc1NC(=O)c1ccc(OCC(=O)Nc2ccccc2F)cc1 | 15 | -11 | -1 | 6 | 15 | 0.5
CC(=O)c1ccc(NC(=O)C(C)Sc2nnnn2C)cc1 (stereo not given) | -12 | -1 | 45 | -8 | 4 | 0.5
COC(=O)c1cc(NC(=O)C2CC(=O)NC(=NCc3ccc(OC)cc3)S2)cc(C(=O)OC)c1 (stereo not given) | 3 | -4 | 3 | -4 | 14 | 1.1
NC(=O)C1CCN(C(=O)c2ccc(OCC(=O)Nc3cccc(C(F)(F)F)c3)cc2)CC1 | 10 | -14 | -10 | 1 | -8 | -0.1
O=C(COC(=O)CCOc1ccccc1)NCCC1=CCCCC1 | -13 | -3 | -11 | 5 | -19 | 0.6
O=C(CN(C(=O)c1csnn1)c1cccc2c1CCCC2)NCc1ccc(F)cc1 | 0 | -14 | 12 | 0 | 1 | -0.3
Cc1ccc(S(=O)(=O)c2nc(-c3cccs3)oc2SCC(N)=O)cc1 | -15 | -11 | 3 | -3 | 10 | 3.4
Cc1cc(C)cc(N(C(=O)C(F)(F)F)C(C(=O)NC2CCCCC2)c2cccs2)c1 (stereo not given) | 5 | 0 | -11 | -1 | · | -0.2
O=C(Nc1ccc2c(c1)OCO2)c1ccc(Br)s1 | -5 | -16 | -2 | -7 | -13 | 0.2
CCCCN1CN(S(=O)(=O)c2ccc(OC)cc2)c2nc3ccccc3nc21 | -2 | 3 | 31 | 0 | 20 | -0.6
Cn1cnc(S(=O)(=O)Nc2cc(C(F)(F)F)ccc2N2CCOCC2)c1 | 0 | -12 | 8 | 12 | -4 | -0.5
CCc1cc(=O)oc2c(C)c(OC(C)C(=O)N3CCC[C@@H]3C(=O)O)ccc12 (stereo not given in full) | -19 | -18 | · | 2 | -1 | ·
COc1cc(CC(=O)OCC(=O)NC2CCCC2)cc(OC)c1OC | 2 | -4 | 32 | 3 | -4 | -0.6
O=[n+]1c2c(n([O-])c3cc(F)ccc31)CCCC2 | -2 | 5 | 3 | -2 | -3 | 0.0

(list continues)
Molecule | CtBP-E1A inh | D2 potentiator | TRPML1 blocker | Six1-Eya2 blk | TRPV1 potentiator | TRPML1 agonist
O=C(CCc1ccccc1)Nc1ccc(S(=O)(=O)Nc2nccs2)cc1 | -12 | -3 | 9 | -4 | 21 | 0.0
O=C(CN1CCOCC1)c1c[nH]c2ccccc12 | 2 | -8 | 1 | 6 | -12 | -0.1
Cc1onc(-c2c(F)cccc2Cl)c1C(=O)c1ccccc1O | 7 | 3 | 6 | 29 | -7 | 1.7
CCCNC(=O)CN1C(=O)c2ccccc2Sc2ncccc21 | 5 | -6 | -12 | -8 | -5 | -1.0
CCN(Cc1ccncc1)C(=O)c1cc(Br)cc(Br)c1O | ? | -2 | -10 | -25 | 19 | -0.1
O=C(CCc1nc2ccccc2[nH]1)N1CCN(C(=O)c2ccco2)CC1 | 5 | -3 | 1 | 6 | 16 | 0.2
CCOC(=O)C1=C(c2ccccc2)NC(=O)NC1c1cccc(OC)c1OC (stereo not given) | 5 | -5 | 0 | 8 | · | -0.4
COc1ccc(/C=N/NC(=O)CNC(=O)c2ccc(S(=O)(=O)N3CCCC3)cc2)c(OC)c1 | · | -11 | -14 | -3 | 10 | 1.2
C[C@H](CO)N1C[C@H](C)[C@@H](CN(C)Cc2ccccc2F)Oc2ncc(Br)cc2C1=O | 2 | -3 | -11 | 22 | · | -0.5
CCOC(=O)c1cnn(-c2nc(-c3ccccc3F)cs2)c1C(F)(F)F | 14 | 6 | 1 | 15 | 5 | -0.6
Cc1ccccc1NC(=O)CCN1CCN(C)CC1 | · | -4 | 3 | -3 | -49 | -0.3
CC(C)(C)NC(=O)C12CCC(C)(c3nc4ccccc4nc31)C2(C)C (stereo not given) | 1 | -12 | 2 | -1 | -14 | 2.1
Cc1ccc(/C=N/NC(=O)c2csc3c2CCCC3)cc1 | -5 | -21 | -7 | -12 | -27 | 0.7
Cc1ccc(S(=O)(=O)NC(CC(C)C)C(=O)Oc2ccc3c4c(c(=O)oc3c2)CCC4)cc1 (stereo not given) | 2 | 4 | 41 | -1 | · | 1.2
C=CCn1c(N2CCOCC2)nc2c1c(=O)[nH]c(=O)n2C | -17 | -2 | 1 | 0 | 0 | -0.8

(listing goes on)
Molecule | CtBP-E1A inh | D2 potentiator | TRPML1 blocker | Six1-Eya2 blk | TRPV1 potentiator | TRPML1 agonist
O=C(NCCc1c[nH]c2ccccc12)/C(=C\c1ccco1)NC(=O)c1ccco1 | 12 | -3 | 10 | -2 | 5 | 0.0
O=C(COC(=O)/C=C/c1ccc(Cl)cc1)NCCN1C(=O)CSC1=O | · | -7 | 1 | -8 | 0 | 0.3
Cc1ccc2cc3c(NC(=O)C4CCCO4)nn(CC(C)C)c3nc2c1 (stereo not given) | 19 | -5 | 5 | 23 | -35 | 2.1
Cc1cc(C)cc(-n2nnnc2SCC(=O)N2CCOCC2)c1 | 5 | 26 | -9 | 3 | 14 | 0.4
CCOC(=O)C(C)Sc1nnc(CSc2nc3nc(C)cc(C)n3n2)o1 (stereo not given) | 11 | -11 | 0 | 0 | 0 | -0.1
CC(=O)NNc1ncnc2c1cnn2-c1ccccc1 | 31 | 5 | -7&16 | 26 | 24 | -0.2&0.5
Cc1coc2cc3oc(=O)c(CCC(=O)NCCN4CCOCC4)c(C)c3cc12 | -3 | -14 | · | -9 | -1 | ·
CCC(Oc1ccccc1)C(=O)Nc1ccccc1C(=O)N1CCN(C)CC1 (stereo not given) | -3 | -4 | -9 | 5 | 5 | 0.5
CC(C)c1nc2sc3c(=O)[nH]cnc3c2c2c1CCCC2 | 4 | -6 | 10 | 6 | 7 | -0.2
O=C(C1CCCN(Cc2ccccc2)C1)N1CCc2ccccc2C1 (stereo not given) | 38 | -19 | 5 | 19 | -3 | -0.4
COc1cc(C(=O)Nc2cc(C)cc(C)c2)c(-n2cnnn2)cc1OC | -19 | -9 | -8 | -1 | -4 | 0.4
O=C(CNC(=O)C(c1ccccc1)c1ccccc1)N/N=C\c1ccc2c(c1)OCO2 | 5 | 0 | 16 | 7 | 11 | 1.2
CCCCc1nc2cc(C(=O)NCc3ccccn3)ccc2o1 | -6 | -17 | 39 | 9 | 8 | 2.1
CCc1nc2ccc(C(=O)Nc3ccc(OC)c(OC)c3)cn2c1N(C)CCC(C)C | -3 | 0 | -13 | -13 | · | 0.3
Cn1c(=O)c2c(ncn2CC(=O)OCC(=O)Nc2ccc(Cl)cc2)n(C)c1=O | 4 | -14 | -4 | -24 | -8 | -0.7

Remaining list, next part
Molecule | CtBP-E1A inh | D2 potentiator | TRPML1 blocker | Six1-Eya2 blk | TRPV1 potentiator | TRPML1 agonist
O=C(c1ccncc1)N1CCN(S(=O)(=O)c2cccc([N+](=O)[O-])c2)CC1 | 8 | ? | 15 | 0 | 3 | 0.8
CC(=O)N1CCCc2cc(S(=O)(=O)Nc3ccc4c(c3)OCO4)ccc21 | 1 | -16 | -5 | 0 | 2 | -0.4
CNC(=O)COC(=O)c1cc(-c2ccc(OC)cc2)nc2ccccc12 | 8 | -4 | 16 | 8 | 4 | -0.3
Cc1nc(CN2CCCCC2)cc(=O)[nH]1 | -23 | -8 | -11 | 1 | 2 | 0.1
Cc1ccc(SCc2c(C(=O)N/N=C/c3cccs3)nnn2-c2nonc2N)cc1 | 6 | -10 | 8 | 1 | · | 0.3
Clc1ccc2nc(CSc3nncn3-c3ccccc3)cn2c1 | 8 | -1 | -9 | 1 | 10 | -0.1
Cc1ncc(CN2CCCC(C(=O)Nc3ccc(-n4ccnc4C)cc3)C2)cn1 (stereo not given) | -6 | -14 | 39 | 2 | 14 | 0.1
CCN1C(=O)[C@H]2[C@@H](c3ccc(C(F)(F)F)cc3)N[C@]3(CCCN(Cc4ccc(Cl)cc4)C3=O)[C@H]2C1=O | 6 | 2 | 9 | 2 | · | -0.4
CCOC(=O)CNS(=O)(=O)c1cc(-c2nnc(Nc3ccc4c(c3)OCO4)c3ccccc23)ccc1C | ? | -6 | -5 | 0 | -6 | -0.9
CC(C)c1ccc(NS(=O)(=O)c2ccc(Cl)nc2)cc1 | -25 | -4 | 0 | -15 | 2 | 5.2
CC(C)(C)n1ncc2c(=O)n(CC(=O)N3CCCc4ccccc43)cnc21 | -3 | -17 | -4 | 10 | 4 | -0.3
CCCCOc1ccc(NC(=O)CCSc2nccn2C)cc1 | -6 | -12 | 12 | -10 | 0 | -0.2
O=C(Nc1ccc(N2CCOCC2)cc1)C1=NN(c2ccccc2)C(=O)CC1 | 2 | -22 | -2 | -2 | 12 | -1.0
COc1cccc(C(=O)NC2CC3CCCC(C2)N3CC(=O)Nc2ccc(N(C)C)cc2)c1 (stereo not given) | -18 | -18 | -8 | -23 | 18 | -0.3
O=C(NC1CC1)C1CCN(C2CCN(C(=O)Cc3ccc4c(c3)OCO4)CC2)CC1 | 8 | -2 | 2 | 8 | -17 | 0.2

Continuation.
Under each structure: CtBP-E1A inh | D2 potentiator | TRPML1 blocker | Six1-Eya2 blk | TRPV1 potentiator | TRPML1 agonist
> CC(=C\C(=O)O)/C(=C/c1ccc(C)o1)C(=O)O
 : 0 | -13 | 0 | 0 | 7 | -0.2
> COc1cccc(CN(C)Cc2cc(=O)oc3cc(O)c(Cl)cc23)c1
 : · | -6 | -7 | 13 | ? | 1.7
> CSCCC(NC(=O)C1CCC(C)CC1)C(=O)NCc1ccco1 (stereo not given)
 : -7 | -5 | 16 | 2 | -15 | -0.1
> O=C(CN1C(=O)C2CCCCC2C1=O)Nc1nc(-c2ccc(F)cc2)cs1 (stereo not given)
 : 2 | -7 | 1 | -2 | 12 | 0.4
> COc1cc(C(=O)OCC(=O)c2cc(C)n(C)c2C)cc(OC)c1OC
 : -6 | 3 | 26 | -11 | 6 | 2.0
> CC(OC(=O)c1ccncc1)C(=O)NC1CCCC1 (stereo not given)
 : -1 | 1 | 20 | 0 | 4 | -0.3
> CCc1nc2ccc(C(=O)N(C)Cc3ccccc3)cn2c1N(C)CCCc1ccccc1
 : -9 | -3 | · | -5 | · | -0.9
> CCOC(=O)/C=C1/SCC(=O)N1CC(=O)NC12CC3CC(CC(C3)C1)C2
 : 14 | -2 | -23 | 11 | · | -0.1

Six successive compounds already listed:
Under each structure: CtBP-E1A inh | D2 potentiator | TRPML1 blocker | Six1-Eya2 blk | TRPV1 potentiator | TRPML1 agonist
> CSCCC(NC(=O)C1CCC(C)CC1)C(=O)NCc1ccco1 (stereo not given)
 : -7 | -5 | 16 | 2 | -15 | -0.1
> O=C(CN1C(=O)C2CCCCC2C1=O)Nc1nc(-c2ccc(F)cc2)cs1 (stereo not given)
 : 2 | -7 | 1 | -2 | 12 | 0.4
> COc1cc(C(=O)OCC(=O)c2cc(C)n(C)c2C)cc(OC)c1OC
 : -6 | 3 | 26 | -11 | 6 | 2.0
> CC(OC(=O)c1ccncc1)C(=O)NC1CCCC1 (stereo not given)
 : -1 | 1 | 20 | 0 | 4 | -0.3
> CCc1nc2ccc(C(=O)N(C)Cc3ccccc3)cn2c1N(C)CCCc1ccccc1
 : -9 | -3 | · | -5 | · | -0.9
> CCOC(=O)/C=C1/SCC(=O)N1CC(=O)NC12CC3CC(CC(C3)C1)C2
 : 14 | -2 | -23 | 11 | · | -0.1
